High-throughput results deposited in PubChem BioAssay by several laboratories.
PABP FP inh – PABP poly(A) RNA binding inhibitors, primary screen, biochemical, fluorescence polarization, uHTS; Polyadenylate-binding protein 1 (Homo sapiens), P11940; inhibition, % at 35 µM; hit rate 1% among 290,000;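 active means 50% or more with normal probe brightness, or confirmed in later tests; inconclusive means above 50% with abnormal brightness, or retests that disagree; inactive means below 50% or failed in later tests; about a fifth of its hits are not listed in these tables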;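 further: calls also rest on retests at 20 µM and on dose response follow-up; controls were probe without protein and protein plus probe with vehicle; some compounds called inactive have numbers as strong as hits; many hits fall short of the cut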
Target sequence (P11940 whole entry, looked up): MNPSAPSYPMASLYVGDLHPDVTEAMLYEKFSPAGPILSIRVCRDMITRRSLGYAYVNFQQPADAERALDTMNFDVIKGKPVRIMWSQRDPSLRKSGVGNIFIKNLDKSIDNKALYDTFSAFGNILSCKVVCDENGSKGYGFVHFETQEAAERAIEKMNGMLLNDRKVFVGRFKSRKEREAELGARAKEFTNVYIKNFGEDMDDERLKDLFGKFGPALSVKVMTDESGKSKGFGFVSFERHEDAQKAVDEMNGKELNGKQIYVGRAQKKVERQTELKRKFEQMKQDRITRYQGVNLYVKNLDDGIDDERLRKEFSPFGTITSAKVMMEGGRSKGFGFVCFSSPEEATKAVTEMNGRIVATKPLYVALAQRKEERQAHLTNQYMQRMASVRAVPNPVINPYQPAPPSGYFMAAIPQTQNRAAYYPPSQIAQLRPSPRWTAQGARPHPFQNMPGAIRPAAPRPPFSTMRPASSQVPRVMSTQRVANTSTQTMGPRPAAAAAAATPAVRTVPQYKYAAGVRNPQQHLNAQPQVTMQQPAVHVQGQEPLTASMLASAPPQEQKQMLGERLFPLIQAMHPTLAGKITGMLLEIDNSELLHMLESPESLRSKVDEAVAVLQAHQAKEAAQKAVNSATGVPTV
CSC inhib – cancer stem cell viability inhibitors, primary screen, luminescence; hit rate 1.1% among 300,000; cancer stem cell-like cells viability; inhibition, % at 7.5 µM;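 active means mean at 75% or more and at least half the replicates too; inconclusive means mean and replicates disagree; tested in HMLE shEcad cells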;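 further: 0% = median of negative and 100% = median of positive control wells; the first replicate is given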
eIF4H FP inh – human eIF4H binding inhibitors, primary screen, translation initiation inhibitor project, biochemical, uHTS, fluorescence polarization. Eukaryotic translation initiation factor 4H (Homo sapiens), Q15056. eIF4H fluorescence polarization binding assay. inhibition, % at 35 µM. hit rate 0.94% among 290,000;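 active means 50% or more with normal probe brightness, or confirmed in later tests; inconclusive means above 50% with abnormal brightness, or retests that disagree; inactive means below 50% or failed in later tests; about a fifth of its hits are not listed in these tables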;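 further: calls also rest on retests at 20 µM and on dose response follow-up; 0% = protein and probe with vehicle and 100% = probe without protein; strong numbers were not always called active; many hits fall short of the cut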
MT1-MMP act inh – blockers of MT1-MMP proenzyme processing, primary screen, HT1080 RFP-PRO-GFP cells, GFP/RFP fluorescence. AID 651647, 2012. GFP/RFP ratio change, % at 20 µM. GFP/RFP ratio fluorescence, overnight; percent of plate control window, DMSO zero. hit rate 0.061% among 360,000;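 active means GFP/RFP ratio change of at least 30% with cell ATP level not reduced by more than half and red fluorescence within 50% of control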; further: strong numbers were not always called active
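Read-out: GFP/RFP fluorescence ratio; Test system: RFP-PRO-GFP reporter HT1080 cells; Compound dosing: single-point 20 µM compound, 1% DMSO; Times: overnight compound exposure at 37 °C.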
Env fusion inh – inhibitors of HIV-1 Env-driven cell-cell fusion, primary screen, HeLa-JRFL effector, CEM21 target cells, luciferase; inhibition, % at 12.3 µM; hit rate 1.1% among 360,000;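 active means mean replicate inhibition score of at least 50 and every replicate individually at or above 50; inconclusive means only one of the two criteria met; inactive means mean below 50 and not all replicates reaching 50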;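 further: 0% = plate neutral controls and 100% = maraviroc near 300 nM; one replicate is shown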
Yeast UUG start – modulators of yeast start codon fidelity, primary screen, whole organism, S. cerevisiae, single point, plate reader | activity score, % at 18.7 µM | hit rate 0.13% among 350,000 | S. cerevisiae UUG-firefly luciferase reporter, luminescence/redox ratio;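 active means replicate mean at a twofold rise or more, about +100% in these data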;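 further: firefly luciferase made from a UUG start codon reports start codon fidelity; reporter light over untreated wells divided by growth signal over untreated wells; some hits fall short of that in this replicate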
Rce1 inh – yeast Rce1p protease inhibitors, primary screen, biochemical, fluorescence, cell-free homogeneous. yeast membranes, quenched prenylated peptide cleavage fluorescence. calls only. hit rate 0.27% among 290,000;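 active means fall in fluorescence gain of 50% or more versus controls, with final raw signal at or below 3038400; inconclusive means same 50% fall but final raw signal above 3038400; inactive means fall in fluorescence gain under 50%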;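 further: plate controls were neutral control wells for no effect and wells lacking membranes for full effect; tested at 10 µM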
MT1-MMP act inh RFP – recorded beside MT1-MMP act inh, whose call it bears; RFP signal change, %; measured here: RFP expression control read;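 0 = vehicle wells; hits needed this value within 50% of zero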
Starred values were filed as active, the others as inactive; i = inactive; ? = inconclusive; · = no result given.

SMILES	PABP FP inh	CSC inhib	eIF4H FP inh	MT1-MMP act inh	MT1-MMP act inh RFP	Env fusion inh	Yeast UUG start	Rce1 inh
COc1ccc(-c2nc3ccc(C)cn3c2CC(C)(C)C)cc1OC	·	·	·	0	-5	18	-14	·
CCCN1C(=O)/C(=C/c2ccc(N3CCCC3)c(C)c2)NC1=S	?	8	?	-279	-5	-44	-7	i
Cc1ccc(CNC(=O)c2ccccc2NC(=O)C2=CSCCO2)cc1	-2	9	-11	3	2	1	-15	i
CCOC(=O)N1CCN(C(=O)c2ccccc2NC(C)=O)CC1	0	-8	5	-2	8	2	-15	i
COC(=O)c1ccc(NC(=O)C2CCN(C(=O)c3cc(OC)c(OC)c(OC)c3)CC2)cc1	49	2	-3	-3	-2	-39	-8	·
CCCN(CCC)S(=O)(=O)c1ccc(C(=O)Nc2nc(-c3ccccc3)c(C(=O)OCC)s2)cc1	-10	5	-6	-6	-11	-15	·	i
COc1cc(C(=S)N2CCOCC2)cc(OC)c1OC	1	-14	-2	4	3	-11	-11	i
CCOc1ccc(/C=N/NC(=O)c2[nH]c3ccc(C)cc3c2C)cc1	-2	24	7	-6	-3	4	-8	i
O=C(NCCCn1ccnc1)/C(=C\c1cccnc1)NC(=O)c1ccco1	7	-11	0	0	0	-1	·	i
O=C(NN=C1CCCC1)c1cc(Cl)cc(Cl)c1O	6	-4	6	-1	7	5	17	i
CCCNc1nc2ccccc2c(=O)[nH]1	7	9	-4	2	1	-32	-13	i
CC1CCc2sc(C(=O)NCc3ccc(F)cc3)cc2C1 (stereo not given)	7	14	-3	5	-3	-39	-18	i
CCN1CCN(C(CNC(=O)c2ccc3c(c2)OCO3)c2cccnc2)CC1 (stereo not given)	-16	-11	2	1	1	-6	16	i
CCOC(=O)c1sc(NC(=O)C2CC2)cc1C	-6	-4	-3	-1	-1	-65	4	i
O=C(N=C1SC2CS(=O)(=O)CC2N1c1ccc(Br)cc1)C1CCCO1 (stereo not given)	-2	-7	0	-1	1	6	-15	i
Nc1ccc2nc3c(=O)n(CCc4ccccc4)c(=O)[nH]c3nc2c1	?	77*	?	-142	-4	-5	-10	i
Cc1ccc(C)c(-n2c(-c3ccco3)n[nH]c2=S)c1	·	-2	·	6	3	-3	-3	i
COc1cc(/C=N/NC(=O)Cn2nnc3ccccc32)ccc1O	-1	-6	2	-1	3	5	·	i
Cc1ccc(S(=O)(=O)N2CCC(C(=O)N3Cc4ccccc4C3)CC2)cc1	-16	·	-6	1	-1	·	-3	i
CN(C)CCCN(C(=O)c1cc(-c2cccs2)nc2ccccc12)c1nc2c(F)cccc2s1	5	29	-16	-1	-1	1	6	i

A draw from above in order of number of heavy atoms, rising:
SMILES	PABP FP inh	CSC inhib	eIF4H FP inh	MT1-MMP act inh	MT1-MMP act inh RFP	Env fusion inh	Yeast UUG start	Rce1 inh
CCCNc1nc2ccccc2c(=O)[nH]1	7	9	-4	2	1	-32	-13	i
Cc1ccc(C)c(-n2c(-c3ccco3)n[nH]c2=S)c1	·	-2	·	6	3	-3	-3	i
O=C(N=C1SC2CS(=O)(=O)CC2N1c1ccc(Br)cc1)C1CCCO1 (stereo not given)	-2	-7	0	-1	1	6	-15	i
CCN1CCN(C(CNC(=O)c2ccc3c(c2)OCO3)c2cccnc2)CC1 (stereo not given)	-16	-11	2	1	1	-6	16	i
CN(C)CCCN(C(=O)c1cc(-c2cccs2)nc2ccccc12)c1nc2c(F)cccc2s1	5	29	-16	-1	-1	1	6	i

(further entries)
SMILES	PABP FP inh	CSC inhib	eIF4H FP inh	MT1-MMP act inh	MT1-MMP act inh RFP	Env fusion inh	Yeast UUG start	Rce1 inh
CCc1ccc(C(=O)COC(=O)c2n[nH]c3ccccc23)cc1	-2	5	-4	1	-9	-15	-22	i
COc1cccc(NC(=O)CN(C)C(=O)c2csc3c2CCCC3)c1	·	-12	·	2	3	·	7	·
O=C(CSc1nnc(-c2ccc(O)cc2)o1)Nc1ccccc1Br	-5	-2	-2	-3	0	-80	-8	i
CCC1C(=O)N(C)CCc2ccccc21 (stereo not given)	7	-8	3	3	1	-5	-2	i
CCCc1nc2oc(C(=O)OCC)c(N)c2c2c1COC(C)(C)C2	0	-11	-2	4	2	-41	6	i
Cc1nnc(NC(=O)CSc2ncc(-c3ccccc3)[nH]2)s1	-10	-5	-5	3	4	-1	-14	i
C=CCN1C=C2C(=O)C(C)(OC(=O)c3ccc(OC)cc3)C(=O)C(c3ccco3)=C2C=C1CCCC (stereo not given)	?	-14	?	-12	6	5	-9	i
CCc1ccc(N2CC(C(=O)Nc3cccc(S(=O)(=O)N4CCCC4)c3)CC2=O)cc1 (stereo not given)	·	·	·	6	-12	-76	·	i
Cc1ccc(C(=O)Nc2cc([N+](=O)[O-])ccc2C)cc1	12	-10	2	-3	0	8	·	i
C=CCn1c(SCC(=O)Nc2cccc(C(=O)OC)c2)nnc1C(C)NC(=O)c1cccs1 (stereo not given)	0	-10	0	5	-2	37	-5	i
CN1NC(=O)CC1c1ccccc1 (stereo not given)	·	·	·	3	5	15	-2	·
COc1cccc2c1OCC(CN1CCN(Cc3ccccc3)C(CCO)C1)=C2 (stereo not given)	2	2	1	2	-3	12	7	i
COCC(=O)N1CCC(Oc2ccc(C(=O)N(C)C3CCCCC3)cc2)CC1	-5	-1	-6	-2	0	-8	0	i
CSc1ccccc1NC(=O)Nc1ccc(F)c(Cl)c1	-1	15	7	-8	-12	11	·	i
COC(=O)c1cccc(NC(=O)CCCOc2cccc(C)c2)c1	-12	-2	8	-2	-2	·	·	i
Cc1ccc(CCNc2ccc3ccccc3c2)cn1	·	15	·	4	8	·	·	i
CC(C)CN(C(=O)c1ccc(S(=O)(=O)N2CCCCC2)cc1)C1CCS(=O)(=O)C1 (stereo not given)	·	·	·	1	0	70*	-1	i
CCn1cc(CNC(=O)c2cc(Cl)ccc2OC)c(C)n1	3	-8	4	4	-1	·	-6	i
CC(C(=O)NCc1cccnc1)N1C(=O)c2ccccc2C1=O (stereo not given)	-11	-4	-7	-4	-1	·	-2	i
COC(=O)C1=C(C)NC2=C(C(=O)CC(C)(C)C2)C1c1cccc(C)n1 (stereo not given)	-1	-5	1	1	4	-32	-12	i
CC(C)=CC(=O)O[C@@H]1Cc2c(ccc3ccc(=O)oc23)OC1(C)C	·	-6	·	1	-1	15	-6	·
CC1CN(C(=O)CCC(=O)NCc2ccccc2)c2ccccc2S1 (stereo not given)	10	-3	4	0	3	-20	-4	i
O=C(NCc1ccc(C(F)(F)F)cc1)c1ccc(-c2ccc(F)c(F)c2)c2ccoc12	·	·	·	1	0	26	-1	·
Cc1nc2ccc(NC(=O)c3ccc(Cl)s3)cc2s1	7	8	-2	2	3	-113	-20	i
Cc1cccc(C(=O)N(CCc2ccccc2)Cc2ccccc2)c1[N+](=O)[O-]	1	-5	-6	-6	-15	2	-12	i
CC1CCN(C(=O)CN2C(=O)C(C)(C)Oc3ccc(C(=O)NC4CCCC4)cc32)CC1	-8	-5	-4	9	5	-31	-10	i
COc1ccc(OC(C)C(=O)Nc2cccnc2)cc1 (stereo not given)	-11	-10	-8	2	1	-10	-18	i
COc1ccc(Cc2nc3ccc(C(=O)NCCc4ccccn4)cc3o2)cc1OC	6	13	-2	-1	-1	23	-4	i
Cc1nc2nc(SCC(=O)O)nn2c(C)c1Cc1ccccc1Cl	-2	-20	-1	3	7	4	·	i
O=C(NCc1ccccc1Cl)C1CCN(c2ncnc3c2nc2n3CCCCC2)CC1	·	-19	·	2	-5	-1	-10	i
Cc1noc(C)c1S(=O)(=O)Nc1ccccc1N1CCOCC1	2	-5	2	4	4	5	·	i
Cc1ccc(NC(=O)CCC(=O)NNC(=O)C(c2ccccc2)c2ccccc2)c(C)c1	-8	-1	-10	-2	0	-37	-2	i
O=C(CNC(=O)c1ccccc1)OC(C(=O)c1ccccc1)c1ccccc1 (stereo not given)	12	11	2	-3	6	12	·	i
C(=N\Nc1nncc2ccccc12)/c1ccccn1	6	-2	5	-12	-13	84*	-65	i
O=[N+]([O-])c1cc(CSC2=NCCN2)ccc1O	11	·	-3	3	0	-12	-11	i
COc1cc(OC)c(OC)cc1C=NCC1(c2ccccc2)CCCC1	4	2	-14	-1	0	·	-8	i
O=C(NCc1ccco1)C(c1ccccc1)N(Cc1cccnc1)C(=O)Cn1nnc2ccccc21 (stereo not given)	-6	-8	8	9	-1	·	-3	i
COc1ccc(C(=O)NNC(=O)c2ccc(S(=O)(=O)N3CCOCC3)cc2)cc1	-9	-2	0	-4	2	-5	·	i
O=C(CCn1cccn1)N1CCCC(N2CCN(c3cccc(C(F)(F)F)c3)CC2)C1 (stereo not given)	6	-2	8	-1	-1	11	-24	i
CCCCCC(=O)N(Cc1ccccc1)c1c(N)n(CCOC)c(=O)[nH]c1=O	-2	-2	-11	1	1	·	-6	i
N#Cc1cn(-c2ccccc2)nc1-c1ccc2c(c1)OCCO2	2	12	-1	-2	1	·	-30	i
COC(=O)/C(=C\C(=O)c1ccccc1)Nc1cccc(C(F)(F)F)c1	1	2	15	2	4	2	-13	i
CNc1c([N+](=O)[O-])cnn1-c1ccc(Cl)cc1Cl	0	-11	-13	3	-2	-365	1	i
CSCC[C@H](NC(=O)[C@H](Cc1ccccc1)n1c(=O)[nH]c2ccccc2c1=O)C(=O)N1CCC[C@@H]1C(=O)O	-10	-7	-2	10	7	·	-4	i
Cc1cccc(NC(=S)NCCC(C)C)c1	4	-10	-3	-3	0	·	·	i
O=S(=O)(c1ccc(Cl)cc1)n1c(Cc2ccccc2)nc2ccccc21	7	1	8	8	0	13	-2	i
O=C1C(NS(=O)(=O)c2ccccc2)=C(N2CCN(c3ccc(F)cc3)CC2)C(=O)c2ccccc21	20	13	14	14	-6	1	-6	i
NC(=O)CC[C@@H]1NC(=O)[C@H](CO)NC(=O)c2cc([N+](=O)[O-])cc(I)c2NCC[C@@H](C(N)=O)NC1=O	-7	-17	5	1	5	10	-2	i
CC(C)c1ccc(C(O)P(=O)(OC2CCCCC2)OC2CCCCC2)cc1 (stereo not given)	-10	30	4	-11	-12	41	-19	i
CCCCn1nc(C(=O)NC2=NCCS2)c2ccccc2c1=O	8	8	0	5	6	19	1	i

More compounds follow:
SMILES	PABP FP inh	CSC inhib	eIF4H FP inh	MT1-MMP act inh	MT1-MMP act inh RFP	Env fusion inh	Yeast UUG start	Rce1 inh
O=C(COc1ccccc1F)NCc1nc2ccccc2[nH]1	4	-7	2	3	5	21	-10	·
CCOc1ccc(/C=C2\SC(N3CCc4ccccc4C3)=NC2=O)cc1	-1	38	-3	2	3	·	·	i
CCCN(C(=O)COC(=O)CNC(=O)c1ccc2ccccc2c1)c1c(N)n(Cc2ccccc2)c(=O)[nH]c1=O	·	-14	·	-3	0	·	-3	i
Cc1ccc(NC(=O)C(C)N2C(=O)c3ccccc3C2=O)nc1 (stereo not given)	1	-8	4	2	6	-5	·	i
COCCNc1nc(-c2cc(F)ccc2C)c2sc(-c3ccccc3)cc2n1	·	·	·	-1	-8	-69	-22	·
COc1cc(/C=N/NC(=O)c2c(-c3ccccc3)noc2C)ccc1O	5	-6	-8	1	-2	·	·	i
O=C(CSc1cccc[n+]1[O-])N1CCCCCC1	10	-7	-8	-2	2	1	·	i
Nc1cccc(Cl)c1N1CCOCC1	0	1	-9	4	5	-42	-2	i
